Rango complex inh: inhibitors of Rango-importin beta complex formation. Potency, µM (titrated, usually from 92.2 µM), for the others: top-dose inhibition of complex formation. AID 540263. Rango CFP/YFP FRET sensor + importin beta, 45 min. 340,000 compounds, 0.031% hits. Q14974; active = rising FRET ratio curve, often small or poorly fitted; inconclusive = mostly compound fluorescence or quenching in the first reads; inactive = flat curves in all reads;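 note: potency is the fitted concentration of half-maximal effect; 0% = DMSO wells and 100% = buffer wells lacking importin beta; nearly all actives have a fitted effect of over 15% in size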
Target sequence (Q14974 whole entry, looked up): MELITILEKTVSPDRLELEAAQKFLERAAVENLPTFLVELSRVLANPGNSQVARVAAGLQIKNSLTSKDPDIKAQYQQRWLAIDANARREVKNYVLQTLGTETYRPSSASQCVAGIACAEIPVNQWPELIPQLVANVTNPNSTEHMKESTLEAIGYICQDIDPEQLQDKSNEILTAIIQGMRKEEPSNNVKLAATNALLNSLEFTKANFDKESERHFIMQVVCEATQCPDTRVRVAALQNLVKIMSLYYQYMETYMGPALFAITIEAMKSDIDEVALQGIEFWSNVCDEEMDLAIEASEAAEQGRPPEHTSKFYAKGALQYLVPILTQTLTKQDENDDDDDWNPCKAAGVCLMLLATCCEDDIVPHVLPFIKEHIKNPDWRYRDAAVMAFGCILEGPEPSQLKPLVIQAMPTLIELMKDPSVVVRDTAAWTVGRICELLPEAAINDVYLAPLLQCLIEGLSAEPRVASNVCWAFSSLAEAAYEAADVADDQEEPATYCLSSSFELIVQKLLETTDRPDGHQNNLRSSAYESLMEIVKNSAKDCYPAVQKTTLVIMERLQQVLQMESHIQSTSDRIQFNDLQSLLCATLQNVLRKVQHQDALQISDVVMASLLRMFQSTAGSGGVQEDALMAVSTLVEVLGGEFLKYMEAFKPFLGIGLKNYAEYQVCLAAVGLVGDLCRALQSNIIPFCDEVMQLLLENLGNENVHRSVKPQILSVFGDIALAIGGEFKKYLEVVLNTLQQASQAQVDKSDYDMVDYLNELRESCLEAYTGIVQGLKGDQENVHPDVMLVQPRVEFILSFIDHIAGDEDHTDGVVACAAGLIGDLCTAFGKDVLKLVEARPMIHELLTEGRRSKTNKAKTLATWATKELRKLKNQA
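Inhibition scored from the CFP 486 nm/YFP 530 nm FRET ratio 45 min after adding 0.125 microM importin beta to 50 nM Rango biosensor preincubated 5 min with compound (room temperature, PBS with DTT, Tween-20, BSA). No-importin wells as positive control.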
Rango dissoc inh: inhibitors of RanGTP-induced Rango-importin beta complex dissociation; Biochemical FRET Rango-importin beta, RanGTP-induced dissociation; Potency, µM (doses to about 46.1 µM), for inactives: at the top dose activity change, negative = inhibition; 340,000 compounds, 0.071% hits; AID 540253; active means falling FRET ratio curve, often poorly fitted, with flat reads before Ran was added; inconclusive means other falling curves, or compound fluorescence or quenching; inactive means flat or rising ratio curve;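 note: potency is the fitted concentration of half-maximal effect; % of control where 0% means no effect; nearly all actives have a fitted effect of over 45% in size; -100% = wells without RanGTP and RCC1; the record marks most hits as doubtful in a second field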
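Two FRET readings bracket the reaction: one 5 min after compound meets Rango–importin beta, another 45 min after RanGTP-RCC1 (0.6 uM Ran, 0.2 uM RCC1, 2 mM GTP) is added. Only the second defines inhibition.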
miR-21 reporter: raises the signal of a miR-21 reporter; Potency, µM (highest dose often 38.3 µM), for the others: at the top dose reporter change, positive = more light; HeLa miR-21 FLuc reporter, luciferase, 48 h; AID 2288; 340,000 tested, under 10 active; active = well fitted rising curve with a large enough effect; inconclusive = small, poorly fitted or top-dose-only effect; inactive = no such curve, though single readings can be large or run the other way;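 note: % of control where 0% means no effect; miR-21 action dims this reporter so a rising signal means less miR-21 action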
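HeLa cells stably expressing CMV-driven firefly luciferase with a downstream miR-21 binding sequence, endogenously expressing miR-21, were treated with titrations (up to about 40uM final) for 48 hours at 37 degree Celsius. Luciferase luminescence was read after lysis.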
GLA inh pH 4.5: blocks human alpha-galactosidase A at pH 4.5 | AID 1467 | P06280 | purified enzyme, 4-MU-alpha-Gal fluorescence, pH 4.5 | activity change, negative = inhibition, % at 105 µM | 230,000 tested, under 10 active; inconclusive = small, poorly fitted or top-dose-only inhibition, or a rising curve; inactive = flat fitted curve, though single readings scatter; no compound was filed as active;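 note: 0% = full activity with enzyme and -100% = basal without enzyme; dose as in the result columns while the protocol names 77 µM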
* = called active by the depositor; ? = inconclusive; . = not tested or not shown; & = joins results of further samples. The list is partial; count on the stated rates, not on these rows.

no. | SMILES | Rango complex inh | Rango dissoc inh | miR-21 reporter | GLA inh pH 4.5
1 | CC(=O)N(C)c1ccc(N=Nc2c(C)[nH]n(-c3ccccc3)c2=O)cc1 | 0.1% | 14% | 3% | .
2 | COc1ccc(S(=O)(=O)NCC(c2ccco2)N2CCc3ccccc32)cc1 (stereo unspecified) | 1.2% | 4% | . | .
3 | COC(=O)c1ccsc1NC(=O)CS(=O)(=O)c1ccccc1 | -0.5% | 14% | . | .
4 | Cc1cc(NC(=O)C2CCCC2)n(-c2nc3ccccc3[nH]2)n1 | 1.7% | -21% | 5% | 3
5 | Cc1cc(C)n(C(=O)c2cccc(S(=O)(=O)N3CCCC3)c2)n1 | -5.4% | -17% | 1% | 7
6 | O=C(CSc1nnnn1C1CCCCC1)N1CCOCC1 | -1.7% | 25% | -15% | 11
7 | CC1(C)CN=C(N(C(=O)Nc2ccccc2)c2ccccc2F)S1 | 1.2% | 1% | -16% | 1
8 | O=C(CCS(=O)CCC(=O)NCc1ccccc1)NCc1ccccc1 | 0.5% | -1% | -1% | 6
9 | O=c1oc2ccccc2n1Cc1ccccc1Cl | -2.9% | 8% | -6% | -3
10 | N/C(Cc1cccs1)=N\OC(=O)COc1ccc(Br)cc1Cl | 2.7% | 4% | -44% | -9
11 | CC(C)C1CC(CCN)(Cc2ccccc2)CCO1 (stereo unspecified) | 2.3% | -2% | -5% | -10
12 | Cc1ccc(Nc2nc(NCCO)nc3c2cnn3C)cc1Cl | -2.5% | 19% | 23% | .
13 | COc1cc(C2c3[nH]c4ccccc4c3C[C@H]3C(=O)N(C4CC4)CC(=O)N23)ccc1OC(C)C (stereo partly specified) | ? | -13% | -12% | .
14 | Cc1cc(C)c2nc(NC(=O)[C@@H](NC(=O)c3cccc(S(=O)(=O)N4CCOCC4)c3)C(C)C)sc2c1 | ? | -14% | -8% | -2
15 | O=C(CN1CCN(S(=O)(=O)c2ccc(F)cc2)CC1)NC1CC1 | -0.4% | -9% | 0% | .
16 | CCCC1=NN2C(=N)/C(=C\c3cc(C)n(-c4cccc(C)c4)c3C)C(=O)N=C2S1 | ? | -21% | -1% | -16
17 | CCN1CCN(CC(=O)N2CCCC(C(=O)c3ccc(Oc4ccccc4)cc3)C2)CC1 (stereo unspecified) | 0.2% | 7% | 12% | 2
18 | CCOc1ccccc1NC(C)C(=O)NC(=O)NC1CCCCC1 (stereo unspecified) | -5.9% | 12% | . | .
19 | CCCc1cc(=O)[nH]c(SCC(=O)N2CCC(C(=O)OCC)CC2)n1 | -1.9% | 12% | -4% | 1
20 | Cc1c(-n2c(SCC(=O)C(C)(C)C)nc3ccccc3c2=O)c(=O)n(-c2ccccc2)n1C | 0.8% | 0% | -6% | -8

Reformatted field by field: part of the list above.
9	O=c1oc2ccccc2n1Cc1ccccc1Cl
  Rango complex inh: -2.9% | Rango dissoc inh: 8% | miR-21 reporter: -6% | GLA inh pH 4.5: -3
10	N/C(Cc1cccs1)=N\OC(=O)COc1ccc(Br)cc1Cl
  Rango complex inh: 2.7% | Rango dissoc inh: 4% | miR-21 reporter: -44% | GLA inh pH 4.5: -9
11	CC(C)C1CC(CCN)(Cc2ccccc2)CCO1 (stereo unspecified)
  Rango complex inh: 2.3% | Rango dissoc inh: -2% | miR-21 reporter: -5% | GLA inh pH 4.5: -10
12	Cc1ccc(Nc2nc(NCCO)nc3c2cnn3C)cc1Cl
  Rango complex inh: -2.5% | Rango dissoc inh: 19% | miR-21 reporter: 23% | GLA inh pH 4.5: .

(listing goes on)
no. | SMILES | Rango complex inh | Rango dissoc inh | miR-21 reporter | GLA inh pH 4.5
21 | O=C(c1ccccc1)N1N=C(C(F)(F)F)CC1(O)c1ccccc1 (stereo unspecified) | -0.8% | 11% | -5% | .
22 | CN1CCc2c(sc3c2C(=O)NC(c2ccc(-c4ccc(Cl)cc4)o2)N3)C1 (stereo unspecified) | ? | ? | -7% | -12
23 | CC(C)NC(=O)c1onc(CSc2cccc(Cl)c2)c1C(=O)O | -1.6% | -11% | 0% | -6
24 | COc1ccc(Nc2nc3ccccc3n3nnnc23)cc1 | 0.8% | -19% | -6% | 1
25 | O=C(CSc1nnc(-c2ccco2)n1Cc1ccccc1)NC(=O)NCc1ccccc1 | -2.5% | 0% | 8% | -9
26 | O=C(NC1CCCCCC1)c1ccccc1-c1ccccc1 | 0.2% | -21% | 0% | -2
27 | CCOc1ccc(C)cc1S(=O)(=O)n1nc(C)cc1C | -0.6% | 0% | -7% | 0
28 | Cc1cc(C=NCCO)c(C)n1-c1cc(Cl)ccc1Cl | 1.3% | -11% | -8% | -21
29 | COCCNC(=O)c1ccc(-n2c(SCc3cccnc3)nc3ccccc3c2=O)cc1 | 0.6% | 3% | -22% | 1
30 | COC(=O)C1C(=O)/C(=C(/C)N2CCCC2)C(=O)CC1(C)C (stereo unspecified) | ? | -24% | -3% | -4
31 | O=C(Cn1c(SCC(=O)N2CCc3ccccc32)nc2ccccc21)NC1CCCC1 | 0.6% | 26% | -5% | 6
32 | CCOc1ccc(NC(=O)C2C3CCC4C(CCC32)C4(Cl)Cl)cc1 (stereo unspecified) | 3.0% | -4% | -17% | 6
33 | CC(C)c1ccc(OCC(O)Cn2cnc3ccccc32)cc1 (stereo unspecified) | -0.2% | -12% | -10% | -20
34 | CCn1c(C)nc2cc(C(N)=O)ccc21 | 0.3% | 0% | -7% | 4
35 | C/C(=N\NC(=O)c1ccccc1O)c1ccc(NC(=O)c2ccccc2)cc1 | 1.7% | 17% | -31% | .
36 | O=C(Nc1ccc(Cl)c(Cl)c1)C1CC(=O)N(c2ccc(Br)cc2)C1 (stereo unspecified) | 3.8% | ? | 9% | -2
37 | C=CCN(C(=O)CC(NC(C)=O)c1ccccc1)c1nc(-c2ccc(S(C)(=O)=O)cc2)cs1 (stereo unspecified) | -2.6% | -8% | -20% | .
38 | CCOC(=O)C1=C(C)c2ccccc2OC1(CC)C(=O)OCC (stereo unspecified) | 5.6% | -5% | . | -26
39 | COc1ccc(Nc2nnc(SCC(=O)Nc3cc(C)on3)s2)cc1 | -0.7% | 3% | -7% | 0
40 | Nc1nc(CN2CCN(Cc3ccccc3)CC2)nc(Nc2ccc3c(c2)OCCO3)n1 | -1.6% | 3% | 1% | -3
41 | O=C(c1ccc(Cl)s1)N1CCCC1 | -3.6% | -1% | -4% | -1
42 | O=c1c(Cl)c(NS(=O)(=O)c2ccccc2)cnn1-c1ccccc1 | 1.1% | -7% | -3% | -20
43 | O=C1C2C(c3ccccc3)=NN(c3ccccc3)C2C(=O)N1c1ccccc1 (stereo unspecified) | -1.3% | -7% | -4% | 5
44 | CCOc1cc(/C=N/NC(=O)C(=O)NCc2cccnc2)ccc1O | 0.1% | 7% | 7% | -13
45 | COc1ccc(N2C(=O)C(Cl)=C(Nc3ccccc3O)C2=O)cc1 | 3.6% | 1% | -26% | 1
46 | CCc1nc(SCC(=O)Nc2nnc(C(C)C)s2)n[nH]1 | -4.6% | 0% | . | .
47 | O=C(c1cc(-c2ccc(Cl)s2)nc2ccccc12)N1CCCC1 | 3.4% | -15% | . | .
48 | COCCn1c(C)cc(C(=O)COC(=O)c2c(C)nn(Cc3ccccc3)c2C)c1C | -2.8% | 9% | 0% | 1
49 | O=C1CC(c2ccccc2)n2nc(NC(=O)c3cccs3)nc2N1 (stereo unspecified) | 6.1% | 18% | 0% | 2
50 | O=C(Nc1nc(-c2cccnc2)cs1)c1cccc([N+](=O)[O-])c1 | -1.0% | 0% | -5% | -8
51 | CC(C)CN(C(=O)CN(C)CC(=O)Nc1ccc(Cl)c(C(F)(F)F)c1)c1c(N)n(CC(C)C)c(=O)[nH]c1=O | ? | -3% | . | .
52 | O=C(CSc1nnc(-c2cccc(Br)c2)o1)N1CCNC1=O | 2.5% | -5% | . | .
53 | COc1ccccc1C(=O)NNC(=O)c1ccc(NC(=O)C(C)C)cc1 | 0.4% | 10% | -7% | 2
54 | O=C(NC1CCCCC1)C(c1ccncc1)N(Cc1ccc(F)cc1)C(=O)c1ccccn1 (stereo unspecified) | -0.9% | -6% | 3% | .
55 | COc1ccc(CC(=O)N2CC3(C)CC2CC(C)(C)C3)cc1OC (stereo unspecified) | -2.3% | -9% | -1% | -8
56 | Cc1nc2c(C(=O)N3CCOCC3)cnn2c(C)c1Cc1cccc(Cl)c1 | . | . | -13% | 8
57 | COC1=CC(=Cc2c(N)n3nc(CC(=O)N4CCOCC4)sc3nc2=O)C=C(OC)C1=O | ? | ? | -2% | .
58 | COc1ccc(CCNc2oc(COc3ccc(Br)cc3)nc2C#N)cc1OC | ? | -30% | ? | -7
59 | Cc1ccc(N2CC(C(=O)Nc3ccc4c(c3)OCCO4)CC2=O)cc1 (stereo unspecified) | -1.0% | 13% | -5% | -7
60 | CCN(C(=O)c1ccc2c(Cl)c3c(nc2c1)CCC3)c1cccc(C)c1 | . | . | 1% | 0
61 | Cc1cccc(NC(=O)COc2ccccc2C)n1 | 0.1% | -9% | -60% | -5
62 | CCN1C(=O)/C(=C\c2ccc(F)cc2)N=C1SCC(=O)NCc1ccco1 | -1.4% | 2% | -1% | -15
63 | O=C(O)CCN1C(=O)c2ccc(Oc3ccc4c(c3)C(=O)N(CCC(=O)O)C4=O)cc2C1=O | -0.9% | 32% | -1% | 2
64 | CCCn1c(=O)c(C(=O)Nc2ccccc2C(=O)OC)c(O)c2ccccc21 | -2.2% | -11% | -10% | 6
65 | COc1ccc2ccccc2c1/C=N\NC(=O)c1ccc(C)s1 | -0.3% | 9% | -4% | .
66 | CCCCn1c(N)c(N(CCOC)C(=O)CSCc2ccccc2C)c(=O)[nH]c1=O | -5.1% | -3% | . | .
67 | O=C(Nc1cccc(Cl)c1)c1cnc[nH]1 | -0.9% | -2% | -58%&-51% | .
68 | C=CCc1cc(Cl)ccc1OCCNCCOC | 3.7% | 1% | -9% | 14
69 | O=C(c1cnccn1)N(Cc1ccco1)C1(C(=O)NC2CCCC2)CCCCC1 | -1.2% | -4% | 4% | -5
70 | O=C(C1CCC(=O)N1Cc1ccccc1Cl)N1CCN(c2ccc(F)cc2)CC1 (stereo unspecified) | -0.8% | -6% | 0% | -1
71 | COc1cccc(NC(=O)C2CCCN2S(=O)(=O)c2ccc3c(c2)C(C)(C)C(=O)N3C)c1 (stereo unspecified) | 2.5% | ? | 1%&3% | .
72 | Cc1cc(C)c(C#N)c(SCC(=O)Nc2nnc(-c3ccccc3)s2)n1 | ? | ? | -8% | 2
73 | CC(=O)Nc1nccc(-c2cc(-c3ccccc3)no2)n1 | -6.6% | 20% | -56% | -6
74 | CC(C)(C)OC(=O)N1CC(O)CC1C(=O)OCC(=O)c1ccccc1 (stereo unspecified) | -0.1% | 0% | -5% | -2
75 | CN(C)S(=O)(=O)c1cccc(COC(=O)c2ccc(Cl)cc2O)c1 | -2.9% | -16% | 10% | -1
76 | O=C(Nc1ccc(Cl)cc1)N1CCc2[nH]c3ccccc3c2C1 | 0.5% | ? | -10% | 4
77 | CCOC(=O)CSc1nc2sc(C)c(C)c2c(=O)n1N | 0.2% | -2% | -4% | -3
78 | Cc1ccc(Cn2ccc(=O)c(Cc3c(Cl)cccc3Cl)c2C)cc1 | 0.2% | 4% | 0% | 6
79 | c1ccc(CN(Cc2cccs2)C(c2cccs2)c2nnnn2C2CCCC2)cc1 (stereo unspecified) | -1.6% | -8% | -3% | -1
80 | O=C(NNC(=O)c1sccc1-n1cccc1)c1ccc(F)cc1 | 0.1% | 3% | -1% | -2

Continuation:
no. | SMILES | Rango complex inh | Rango dissoc inh | miR-21 reporter | GLA inh pH 4.5
81 | C[n+]1ccccc1N1CCN(c2ccccc2Cl)CC1 | 0.1% | 23% | 5% | -2
82 | COc1cc2c(cc1NC(=S)NC(=O)c1c(OC)cccc1OC)oc1ccccc12 | -5.2% | -1% | -7% | -16
83 | CC(C)COC(=O)N1C[C@H](O)C[C@H]1C(=O)Nc1ccc(Cl)cc1 | -2.7% | 3% | 0% | .
84 | O=C(C1=C(O)/C(=C/c2ccc(O)cc2)CCC1)C(F)(F)F | ? | ? | -27% | -14
85 | CCOC(=O)c1c(NC(=O)COC(=O)CCCOc2ccc(OC)cc2)sc(C(=O)N(C)C)c1C | 4.7% | 0% | . | .
86 | Cc1ccc(C)c(NS(=O)(=O)c2cc(C(=O)Nc3cccc(N(C)S(C)(=O)=O)c3)ccc2C)c1 | -1.8% | 5% | 17% | -9

Bioassay records: PubChem BioAssay, National Center for Advancing Translational Sciences (NCATS)
